# NPYLR7 agonist: agonists of mosquito NPYLR7 receptor, primary screen, cell-based, Aedes aegypti, calcium fluorescence, mosquito biting behavior; activation, % at 10 µM; Aedes aegypti neuropeptide Y-like receptor 7 (NPYLR7); HEK293T NPYLR7/Galpha15, GCaMP6s calcium fluorescence; 270,000 tested, 0.15% active; AID 1259423, 2018; in the data active means activation above about 40%;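 further: 0% = vehicle and 100% = reference agonist at the receptor; some compounds past the cut are filed as inactive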
# NPYLR7 agonist max-min: also measured in NPYLR7 agonist; calls as there; activation, %; measured here: Max-Min RFU normalised activation; some inactives read as strong as hits;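 span of the calcium signal over five minutes; 0% = vehicle and 100% = native peptide agonist; compound fluorescence can raise it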
# Numbers without * were called inactive; & = joins results of further samples. Some of the compounds tested; the hit share may differ from the screen's.
SMILES,NPYLR7 agonist,NPYLR7 agonist max-min
CCOC(=O)C1CCCN(CC(=O)N2N=C(c3ccccc3Cl)CC2c2ccc(Cl)cc2)C1 (centres undefined),42*,57*
Cc1ccc(C2(O)CCN(Cc3nc4c(cnn4C)c(=O)[nH]3)CC2)nc1,0,-4
CCOC(=O)c1ccc(NC(=O)COC(=O)c2sc3nc(C)[nH]c(=O)c3c2C)cc1,-5,-11
Cc1nc(N2CCCCC2)ncc1-c1cc(=O)[nH]c(Nc2ccccc2)n1,-1,-4
Cc1ccccc1C1CC1C(=O)N1CCCCCC1CC(O)c1ccco1 (centres undefined),5,7
O=C(Nc1c(-c2ccc(Cl)cc2)nc2ccccn12)C1CCC1,-5,2
Cc1ccn2c(NC(C)(C)CC(C)(C)C)c(-c3ccc(OS(=O)(=O)c4cccc5ccccc45)cc3)nc2c1,26,25
N#CCC(=O)NCc1ccco1,-1,0
Cc1cc(=O)[nH]c(-n2nc(C)c(CCC(=O)NCC(C)C)c2C)n1,-1,-3
COCCCN(CC(=O)N(CCc1ccc(OC)c(OC)c1)Cc1sccc1C)C(=O)COc1ccccc1,-3,9
COc1ccccc1CCNC(=O)N(C)C(C)c1cc2ccccc2o1 (centres undefined),7,3
COc1cccc(/C=N\Nc2ccc3c(Cl)cc(Cl)c(O)c3n2)c1O,-4,-11
c1ccc2c(c1)sc1nncn12,0,1
COc1cc(-n2ccnc2-c2ccc3c(c2)OCCO3)cc(OC)c1OC,3,2
CCNC(=S)NC(=NCc1cccnc1)Nc1nc(C)cc(C)n1,2,1
CCCCc1cc(NC(=O)c2c[nH]c(=O)c(Br)c2)n[nH]1,2,0
Cc1cc(C)c(S(=O)(=O)N2CCN(c3ccc(-n4cccn4)nn3)CC2)cc1C,-5,-11
COc1cccc(NC(=O)CCC2CCN(C(=O)[C@@H]3C[C@H]3c3ccccc3)CC2)c1,7,6
COCC(=O)N1CCCN(C(=O)c2cc3ccc(C(C)C)cc3[nH]2)CC1,3,2
Cc1cc(NC(=O)C2CC2C2CC2)n(C)n1 (centres undefined),0,-1
Cc1cccc(C)c1OC1CN(C(=O)c2cnc3ccccn3c2=O)C1,0,9
Cn1c(=O)c2c(nc(CN3CCN(CCO)CC3)n2Cc2ccc(Cl)cc2Cl)n(C)c1=O,-1,-2
CCOC(=O)c1cc(CCC(C)C)n(-c2ccc(C(=O)NC3CCCCC3)cc2)n1,3,0
CC1(Cc2ccccc2)C(=O)Nc2ccc(S(=O)(=O)NC3CCCCC3)cc21 (centres undefined),2,3
COc1ccccc1N1CCN(c2nc(C3CC3)nc3ccccc23)CC1,10,22
Cc1cc(C(=O)Nc2c(C)nc3ccccn3c2=O)ccc1[N+](=O)[O-],-3,-5
COc1ccc(C2C(C(=O)OCCc3ccccc3)=C(C)NC3=C2C(=O)CC(c2ccccc2)C3)cc1 (centres undefined),12,11
Cn1cc(S(=O)(=O)N2CCN(c3ccc(F)cc3)CC2)c(=O)n(C)c1=O,-2,-3
CC(C)(C)n1c[n+](-c2ccc(Br)cc2)c(-c2ccccc2Cl)n1,5,3
O=C(c1cn(CCN2CCCCC2)nn1)N1CCC(Oc2ccccc2F)CC1,13,5

# Ordered by heavy-atom count (falling): three of the compounds above.
SMILES,NPYLR7 agonist,NPYLR7 agonist max-min
COc1ccc(C2C(C(=O)OCCc3ccccc3)=C(C)NC3=C2C(=O)CC(c2ccccc2)C3)cc1 (centres undefined),12,11
Cc1cc(C)c(S(=O)(=O)N2CCN(c3ccc(-n4cccn4)nn3)CC2)cc1C,-5,-11
Cc1cc(NC(=O)C2CC2C2CC2)n(C)n1 (centres undefined),0,-1

# Continuation.
SMILES,NPYLR7 agonist,NPYLR7 agonist max-min
O=C(NNC(=O)c1ccccn1)c1cccc(S(=O)(=O)NC2CC2)c1,-5,-2
CCN(Cc1noc(CC(C)C)n1)C(=O)CCN1CCCCO1,0,-1
COCC(=O)N1CCN(c2ccc(Cl)cc2Cl)C(=O)C1C (centres undefined),-16,-13
Cc1ccc(Oc2ccc(NC3CCOC3=O)cc2)nc1 (centres undefined),18,6
CCOC1=CC(=Cc2c(N)n3nc(-c4ccccc4C)sc3nc2=O)C=CC1=O,4,5
CCC(C)CN(CC(=O)N1CCc2sccc2C1COc1ccc(Cl)c(C)c1)C(=O)Nc1ccc(C)cc1 (centres undefined),21,22
CCCCC(CC)COCCCNC(=O)c1cc(-c2cc(OC)c(OC)c(OC)c2)nc2ccccc12 (centres undefined),8,9
O=C(NCCn1ncc2c(N3CCCCCC3)ncnc21)c1cc(-c2ccccc2)on1,2,0
COc1ccc(OC)c(NC(=S)N2CC(=O)N3CCc4cc(C)ccc4C3C2)c1 (centres undefined),8,8
CCCn1c(=O)c2ccccc2n(C(CC)C(=O)Nc2ccc(OC)cc2)c1=O (centres undefined),-1,7
O=C(Nc1cccc(-c2nc3ccccc3o2)c1)c1coc2ccccc2c1=O,1,5
O=C(Cc1c[nH]c2ccccc12)N1CCOC(Cc2ccccc2)C1 (centres undefined),3,13
CC(C)n1nccc1-c1nnc(NC(=O)c2ccccc2)o1,-1,-2
O=c1c2cc3c(=O)n(C4CCCC4)ccc3nc2ccn1CCN1CCOCC1,5,11
N#Cc1cn(-c2cc(Cl)ccn2)c(=O)[nH]c1=O,-7,-7

# 29 of these compounds, set out differently.
# Order of results: NPYLR7 agonist | NPYLR7 agonist max-min
- Cc1cc(C)c(S(=O)(=O)N2CCN(c3ccc(-n4cccn4)nn3)CC2)cc1C
  -5 | -11
- COc1cccc(NC(=O)CCC2CCN(C(=O)[C@@H]3C[C@H]3c3ccccc3)CC2)c1
  7 | 6
- COCC(=O)N1CCCN(C(=O)c2cc3ccc(C(C)C)cc3[nH]2)CC1
  3 | 2
- Cc1cc(NC(=O)C2CC2C2CC2)n(C)n1 (centres undefined)
  0 | -1
- Cc1cccc(C)c1OC1CN(C(=O)c2cnc3ccccn3c2=O)C1
  0 | 9
- Cn1c(=O)c2c(nc(CN3CCN(CCO)CC3)n2Cc2ccc(Cl)cc2Cl)n(C)c1=O
  -1 | -2
- CCOC(=O)c1cc(CCC(C)C)n(-c2ccc(C(=O)NC3CCCCC3)cc2)n1
  3 | 0
- CC1(Cc2ccccc2)C(=O)Nc2ccc(S(=O)(=O)NC3CCCCC3)cc21 (centres undefined)
  2 | 3
- COc1ccccc1N1CCN(c2nc(C3CC3)nc3ccccc23)CC1
  10 | 22
- Cc1cc(C(=O)Nc2c(C)nc3ccccn3c2=O)ccc1[N+](=O)[O-]
  -3 | -5
- COc1ccc(C2C(C(=O)OCCc3ccccc3)=C(C)NC3=C2C(=O)CC(c2ccccc2)C3)cc1 (centres undefined)
  12 | 11
- Cn1cc(S(=O)(=O)N2CCN(c3ccc(F)cc3)CC2)c(=O)n(C)c1=O
  -2 | -3
- CC(C)(C)n1c[n+](-c2ccc(Br)cc2)c(-c2ccccc2Cl)n1
  5 | 3
- O=C(c1cn(CCN2CCCCC2)nn1)N1CCC(Oc2ccccc2F)CC1
  13 | 5
- O=C(NNC(=O)c1ccccn1)c1cccc(S(=O)(=O)NC2CC2)c1
  -5 | -2
- CCN(Cc1noc(CC(C)C)n1)C(=O)CCN1CCCCO1
  0 | -1
- COCC(=O)N1CCN(c2ccc(Cl)cc2Cl)C(=O)C1C (centres undefined)
  -16 | -13
- Cc1ccc(Oc2ccc(NC3CCOC3=O)cc2)nc1 (centres undefined)
  18 | 6
- CCOC1=CC(=Cc2c(N)n3nc(-c4ccccc4C)sc3nc2=O)C=CC1=O
  4 | 5
- CCC(C)CN(CC(=O)N1CCc2sccc2C1COc1ccc(Cl)c(C)c1)C(=O)Nc1ccc(C)cc1 (centres undefined)
  21 | 22
- CCCCC(CC)COCCCNC(=O)c1cc(-c2cc(OC)c(OC)c(OC)c2)nc2ccccc12 (centres undefined)
  8 | 9
- O=C(NCCn1ncc2c(N3CCCCCC3)ncnc21)c1cc(-c2ccccc2)on1
  2 | 0
- COc1ccc(OC)c(NC(=S)N2CC(=O)N3CCc4cc(C)ccc4C3C2)c1 (centres undefined)
  8 | 8
- CCCn1c(=O)c2ccccc2n(C(CC)C(=O)Nc2ccc(OC)cc2)c1=O (centres undefined)
  -1 | 7
- O=C(Nc1cccc(-c2nc3ccccc3o2)c1)c1coc2ccccc2c1=O
  1 | 5
- O=C(Cc1c[nH]c2ccccc12)N1CCOC(Cc2ccccc2)C1 (centres undefined)
  3 | 13
- CC(C)n1nccc1-c1nnc(NC(=O)c2ccccc2)o1
  -1 | -2
- O=c1c2cc3c(=O)n(C4CCCC4)ccc3nc2ccn1CCN1CCOCC1
  5 | 11
- N#Cc1cn(-c2cc(Cl)ccn2)c(=O)[nH]c1=O
  -7 | -7

# Additional results:
SMILES,NPYLR7 agonist,NPYLR7 agonist max-min
N#CC1C=Cc2ccccc2C1C(=O)/C=C/c1ccccc1 (centres undefined),6,4
CCCCNc1cc(C)nc2c(-c3ccccc3Cl)c(C)nn12,4,0
CO[C@@H]1CC[C@H]2C[C@@H]1[C@@H](Oc1ccccn1)CN2C(=O)c1ccco1,25,33
CCc1cccc(OCCN(C)c2ncnc3c2CCNC3)c1,5,4
Cc1ccc(S(=O)(=O)N2CCCN(CCCn3c(=O)[nH]c4ccccc43)CC2)cc1,-3,0
CC(C)(C)c1cc(NC(=O)c2ccc(F)c(Cl)c2)n(-c2cc(Cl)ccc2Cl)n1,24,15
COc1cc(C(=O)NCCCc2n[nH]c(C)n2)cc(OC)c1C,0,-4
CC1(C)CN(C(=O)c2ccco2)C2(S1)C(=O)Nc1ccc(Cl)cc12 (centres undefined),3,9
OC(c1ccc(F)c(F)c1)c1nc(-c2cncnc2)cs1 (centres undefined),4,1
COCCCn1c(SCc2cccc(Oc3ccccc3)c2)nnc1-c1cc(-c2ccccc2)nc2ccccc12,-8,-13
CC(c1nnc(-c2ccccc2)o1)N(C)CC12CC3CC(CC(C3)C1)C2 (centres undefined),4,-2
COc1ccc(S(=O)(=O)NCC2CCCN(C(=O)CCn3cccn3)C2)cc1 (centres undefined),18&6,6&4
COc1ccc(OC)c(S(=O)(=O)n2nnc3ccccc32)c1,0,2
Cc1ccc2nc(C)c(NC(=O)CC(C)(C)C)c(=O)n2c1,0,-1
Cc1nc(NC2(c3cc(F)ccc3F)CC2)c2cnn(C)c2n1,3,13
Cc1nnsc1C(=O)N1Cc2cnc(C(C)(C)C)nc2C1,6,2
O=C(CN(CCN1CCCC1)c1ccccc1)NCc1ccco1,-2,-1
c1ccc2c(c1)NC(c1ccsc1)n1c-2nc2ccccc21 (centres undefined),5&5,-1&5
CCC(C)(C)n1c(=O)[nH]c2c(c1=O)CCC2,1,6
Cc1cccc(NC(=O)CN(C)C(=O)NC(c2ccccc2)C2CC2)c1C (centres undefined),1,-1
CCCCCOC(=O)Cn1c(=O)oc2ccccc21,0,7
Cc1ccc(-c2nnc(CNC(Cn3cccn3)c3ccccc3)o2)n1C (centres undefined),1,-1
O=C(NCc1cccs1)c1csc(Nc2ccccc2)n1,7,3
CCCS(=O)(=O)N1CCC(c2n[nH]c(=S)n2CC)CC1,6,3
Cc1nnc(CNC(=O)CC2(Cc3ccccc3)C(=O)N(C)c3ccccc32)o1 (centres undefined),5,5
CC(=O)Oc1c(C(=O)c2nnc(C)o2)c(=O)n(C)c2ccccc12,4,7
CCc1ccc(Cl)c(CC)c1NC(=O)c1cnccn1,-3,-5
O=c1/c(=C\c2ccc([N+](=O)[O-])cc2)sc2nc(-c3cccs3)nn12,2,13
FC(F)(F)CCc1ccnc(N[C@@H]2C[C@H]2c2ccccc2)n1,22,12
Cc1ccc(NC(=O)c2ccc([N+](=O)[O-])s2)cc1,1,1
Cc1ccc(-c2nnc(SCC(=O)NCCN3CCOCC3)n2-c2ccc(Cl)c(Cl)c2)cc1,12,4
COc1cc(C)c(-c2nc3ccccc3c(=O)n2Cc2ccc(F)cc2)cc1C,4,1
CC#CC(=O)N1CCC(CCC(=O)Nc2cccc(OC)c2)CC1,13,8
COc1ccc(C)cc1N1C(=O)CSC1c1ccccc1NC(=O)c1ccc(F)cc1 (centres undefined),0,4
O=C(CCc1nc(-c2ccccc2)no1)Nc1nc2c(s1)CCC2,0,-1
Cn1nc(CC2CCN(C(=O)c3cnco3)CC2)n(-c2ccccc2)c1=O,7,7
CCOC(=O)c1ccc2c(c1)nc(SCc1ccccc1[N+](=O)[O-])n2Cc1ccccn1,18,23
Cn1cc(Br)cc1C(=O)O,3,8
CN(Cc1ccccc1)c1ncccc1CNc1ncccc1Cl,16,3
Cc1cnc2c(Cl)c(C(=O)N(C)Cc3ncccc3C)nn2c1,-12,-14
NC(=O)c1ccc(Sc2ccc(Cl)cc2)nc1,3,4
O=C(NCc1ccncc1)c1ccc(CSc2nnc(-c3ccco3)n2-c2ccc(F)cc2)cc1,16,19
CCc1c(C)nn(-c2ccc(C(=O)NCCc3cccc(F)c3)cc2)c1C,-9,-16
CCn1c(=S)[nH]c2sc3c(c2c1=O)CCC(C)C3 (centres undefined),-1,-3
COc1ccc2nc(C)c(C(=O)N(C)CC34CC5CC(CC(C5)C3)C4)cc2c1,17,15
O=C(Nc1ccccc1Nc1ccccc1)c1ccc2nc(-c3ccccc3)c(-c3ccccc3)nc2c1,-3,-8
Cc1ccccc1Oc1ncccc1CNC(=O)c1occc1C,0,-4
CCc1ccc(C(CNC2CS(=O)(=O)CC2O)N(C)C)cc1 (centres undefined),1,1
Cn1cc(/C=C/C(=O)NCCS(C)(=O)=O)cn1,6,5
Clc1cccc(Cl)c1Cn1c2ccccc2c2nc3ccccc3nc21,-9,-10
CNC(=O)CNC(=O)c1cc2c(C)nn(Cc3ccc(Cl)cc3)c2s1,0,5
CCn1c(SCC(=O)Nc2cccc(OC)c2)nc2c(-c3ccccc3)c[nH]c2c1=O,0,-7

# From PubChem BioAssay
